Screening data as filed in PubChem BioAssay.
Vaccinia stage: Vaccinia orthopox stage-specific inhibition | Vaccinia-infected cells, mCherry/Venus stage reporter fluorescence; stronger effect = lower value; some inactives read as strong as hits | activity change (mCherry), % (concentration not given with the values) | hit rate 0.01% among 89,000 | AID 1053133;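 active = mCherry past -33% and 40 or more points under the early reporter, replicates agreeing; inconclusive = past -33% without that gap or agreement; tested in A549 cells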;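 note: scaled between vehicle wells and reference inhibitor wells; 23 nL library stock went into each well; one replicate is shown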
Vaccinia stage Venus: also measured in Vaccinia stage; calls as there; activity change (Venus), %; measured here: Venus reporter, other viral stage;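 negative = less Venus signal; first of two replicates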
An asterisk follows results filed as active; & = joins results of further samples. Some of the compounds tested; rates above refer to the full screens.

CC(C)NC(=O)Nc1ccc2c(c1)CC(=O)N([C@H](C)CO)C[C@@H](C)[C@@H](CN(C)C(=O)NC1CCCCC1)O2 was read as Vaccinia stage 17 and Vaccinia stage Venus 12.
`CO[C@H]1CN(C)C(=O)c2cc(NC(=O)c3ccc(F)cc3)ccc2OC[C@H](C)N(C(C)=O)C[C@@H]1C` gave Vaccinia stage 9 and Vaccinia stage Venus -3.
`COc1ccc(CNC(=O)C[C@H]2C=C[C@@H](NC(=O)c3ccc4c(c3)OCO4)[C@@H](CO)O2)cc1` gave Vaccinia stage -3 and Vaccinia stage Venus -9.
Screening C[C@H](CO)N1C[C@H](C)[C@H](CN(C)Cc2ccc(-c3ccccc3)cc2)Oc2ccc(NC(=O)Nc3ccc4c(c3)OCO4)cc2CC1=O returned Vaccinia stage -27 and Vaccinia stage Venus -23.
For COc1ccccc1CNC(=O)C[C@H]1C[C@H]2c3cc(NS(=O)(=O)c4ccc(F)cc4)ccc3O[C@H]2[C@@H](CO)O1 the results were Vaccinia stage -21 and Vaccinia stage Venus -18.
Screening CN1CCN(C(=O)[C@H]2[C@H](CO)[C@H]3Cn4c(cccc4=O)[C@@H]2N3Cc2ccncc2)CC1 returned Vaccinia stage 4 and Vaccinia stage Venus 9.
`CCC(=O)N1C[C@H](C)[C@@H](OC)CN(C)C(=O)c2cc(NC(=O)C3CC3)ccc2OC[C@H]1C` gave Vaccinia stage 12 and Vaccinia stage Venus 16.
COc1cccc(-c2ccccc2[C@H]2[C@@H](C#N)N(C(=O)c3ccccn3)[C@@H]2CO)c1 was read as Vaccinia stage 3 and Vaccinia stage Venus 3.
C[C@@H]1CN([C@@H](C)CO)C(=O)Cc2cc(NC(=O)c3ccncc3)ccc2O[C@@H]1CN(C)Cc1ccc(C(=O)O)cc1 was read as Vaccinia stage 19 and Vaccinia stage Venus 16.
Screening C[C@H](CO)N1C[C@H](C)[C@H](CN(C)Cc2ccc(Oc3ccccc3)cc2)Oc2ccc(NS(=O)(=O)c3cccs3)cc2C1=O returned Vaccinia stage -6 and Vaccinia stage Venus -6.
For O=C(N[C@@H]1C=C[C@H](CC(=O)N2CCN(c3ccccc3)CC2)O[C@@H]1CO)c1ccccc1 the results were Vaccinia stage 7 and Vaccinia stage Venus 4.
COc1ccccc1CNC(=O)C[C@@H]1C[C@H]2c3cc(NC(=O)Nc4ccc(C(F)(F)F)cc4)ccc3O[C@H]2[C@@H](CO)O1 was read as Vaccinia stage -2 and Vaccinia stage Venus -2.
`N#C[C@H]1[C@H](c2ccccc2C2=CCCCC2)[C@@H](CO)N1C(=O)c1cccc(F)c1` gave Vaccinia stage 14 and Vaccinia stage Venus 10.
For CN1C(=O)c2cc(NC(=O)c3ccc(C(F)(F)F)cc3)ccc2OC[C@@H]2O[C@@H](CC(=O)O)CC[C@@H]21 the results were Vaccinia stage 7 and Vaccinia stage Venus 14.
For C[C@@H]1CCCCO[C@@H](CN(C)C(=O)Nc2ccc(C(F)(F)F)cc2)[C@H](C)CN([C@@H](C)CO)C(=O)c2cc(NC(=O)CCC(F)(F)F)ccc2O1 the results were Vaccinia stage 0 and Vaccinia stage Venus -7.
For C/C=C/c1ccc2c(c1)O[C@H](CN(C)C(=O)c1ccc3c(c1)OCO3)[C@@H](C)CN([C@H](C)CO)S2(=O)=O the results were Vaccinia stage -19 and Vaccinia stage Venus -6.
`CCCNC(=O)[C@@H]1[C@@H](CO)[C@@H]2Cn3c(ccc(/C=C/c4ccccc4)c3=O)[C@H]1N2C(=O)c1ccccc1` gave Vaccinia stage 13 and Vaccinia stage Venus 7.
`COc1ccccc1CN(C)C[C@@H]1OCc2ccccc2-c2ccccc2C(=O)N([C@H](C)CO)C[C@@H]1C` gave Vaccinia stage -19 and Vaccinia stage Venus -14.
`O=C(Cc1ccccn1)NCC[C@@H]1CC[C@H](NC(=O)Nc2ccc(Cl)cc2)[C@@H](CO)O1` gave Vaccinia stage -1 and Vaccinia stage Venus -5.
`CCO[C@H]1OC(C(=O)N2CCN(Cc3ccc4c(c3)OCO4)CC2)=C[C@@H](c2csc3ccccc23)[C@@H]1CCCO` gave Vaccinia stage inconclusive.

Nothing new here: two of the compounds above.
`O=C(Cc1ccccn1)NCC[C@@H]1CC[C@H](NC(=O)Nc2ccc(Cl)cc2)[C@@H](CO)O1` gave Vaccinia stage -1 and Vaccinia stage Venus -5.
`CCO[C@H]1OC(C(=O)N2CCN(Cc3ccc4c(c3)OCO4)CC2)=C[C@@H](c2csc3ccccc23)[C@@H]1CCCO` gave Vaccinia stage inconclusive.

Next section.
For CC(C)C#Cc1cnc2c(c1)C(=O)N([C@@H](C)CO)C[C@@H](C)[C@@H](CN(C)C(=O)Nc1cc(F)ccc1F)O2 the results were Vaccinia stage 1 and Vaccinia stage Venus -1.
Screening COc1ccccc1NC(=O)N[C@H]1CC[C@H](CCNC(=O)c2ccc3c(c2)OCO3)O[C@@H]1CO returned Vaccinia stage -21 and Vaccinia stage Venus -17.
Screening CCC(=O)N(C)C[C@@H]1Oc2cc(-c3cccnc3)ccc2S(=O)(=O)N([C@@H](C)CO)C[C@H]1C returned Vaccinia stage -7 and Vaccinia stage Venus -7.
Screening Cc1noc(C)c1NC(=O)Nc1ccc2c(c1)C(=O)N([C@H](C)CO)C[C@H](C)[C@@H](CN(C)Cc1ccc(Oc3ccccc3)cc1)O2 returned Vaccinia stage 56 and Vaccinia stage Venus 199.
C[C@@H]1CN([C@H](C)CO)C(=O)c2cc(C#Cc3cccc(F)c3)cnc2O[C@H]1CN(C)Cc1ccccn1 was read as Vaccinia stage 0 and Vaccinia stage Venus 0.
For C[C@H](CO)N1C[C@H](C)[C@@H](CN(C)Cc2ccc(-c3ccccc3)cc2)OCc2ccccc2-c2c(n(C)c3ccccc23)C1=O the results were Vaccinia stage inconclusive.
For Cc1ccc(S(=O)(=O)Nc2ccc3c(c2)C(=O)N([C@H](C)CO)C[C@H](C)[C@@H](CN(C)C(=O)NC2CCCCC2)OCCCC[C@H](C)O3)cc1 the results were Vaccinia stage inconclusive.
CCCC#Cc1ccc([C@H]2[C@@H](CO)N3C(=O)CN(C(=O)c4ccccn4)C[C@@H]23)cc1 was read as Vaccinia stage 20 and Vaccinia stage Venus 6.
CCCC#Cc1ccc2c(c1)O[C@@H](CN(C)C(=O)c1ccccc1)[C@H](C)CN([C@H](C)CO)S2(=O)=O was read as Vaccinia stage 0 and Vaccinia stage Venus -1.
`O=C(C[C@@H]1CC[C@@H](NC(=O)Nc2ccccc2F)[C@@H](CO)O1)NCc1ccc(-c2ccccc2)cc1` gave Vaccinia stage -21 and Vaccinia stage Venus -13.
For C[C@@H]1CN([C@@H](C)CO)C(=O)c2cc(NC(=O)C3CCCCC3)ccc2O[C@H]1CN(C)Cc1ccc(-c2ccccc2)cc1 the results were Vaccinia stage -11 and Vaccinia stage Venus -10.
`O=C(Nc1ccc(F)cc1)N1CCCCN2[C@@H](CO)[C@@H](c3ccc(-c4ccccc4F)cc3)[C@@H]2C1` gave Vaccinia stage inconclusive.
O=C(Nc1ccccc1F)N[C@H]1CC[C@H](CCNC(=O)C2CCCC2)O[C@@H]1CO was read as Vaccinia stage -6 and Vaccinia stage Venus 1.
Screening C[C@H](CO)N1C[C@H](C)[C@H](CN(C)C(=O)Nc2cccc3ccccc23)Oc2ncc(C#CC(C)(C)O)cc2C1=O returned Vaccinia stage 12 and Vaccinia stage Venus 13.
CCS(=O)(=O)N1[C@H](C#N)[C@@H](c2ccc(C#CC(C)C)cc2)[C@H]1CO was read as Vaccinia stage 15 and Vaccinia stage Venus 9.
C[C@@H]1CN([C@H](C)CO)C(=O)c2cc(NC(=O)c3ccncc3)ccc2O[C@H]1CN(C)Cc1ccc(-c2ccccc2)cc1 was read as Vaccinia stage -26 and Vaccinia stage Venus -28.
COCC(=O)N1C[C@@H]2[C@H](c3ccccc31)[C@H](CO)N2C(=O)NC(C)C was read as Vaccinia stage 10 and Vaccinia stage Venus 6.
Screening CO[C@@H]1CN(C)C(=O)c2ccc(NC(C)=O)cc2OC[C@H](C)N(C(=O)C2CCOCC2)C[C@H]1C returned Vaccinia stage 7 and Vaccinia stage Venus 9.
For CO[C@H]1CN(C)C(=O)c2ccc(NC(=O)NC(C)C)cc2OC[C@H](C)N(S(C)(=O)=O)C[C@H]1C the results were Vaccinia stage -4 and Vaccinia stage Venus -2.
C[C@@H]1CCCCO[C@H](CN(C)Cc2ccc(C(=O)O)cc2)[C@H](C)CN([C@H](C)CO)C(=O)c2cc(NS(=O)(=O)c3ccc(Cl)cc3)ccc2O1 was read as Vaccinia stage 22 and Vaccinia stage Venus 6.
Screening CN(C)C(=O)C[C@H]1C=C[C@H](NC(=O)C2CCC2)[C@@H](CO)O1 returned Vaccinia stage -6 and Vaccinia stage Venus -1.
`C[C@@H]1CN([C@@H](C)CO)C(=O)Cc2cc(NC(=O)Nc3ccc(F)cc3)ccc2O[C@H]1CN(C)CC1CC1` gave Vaccinia stage -22 and Vaccinia stage Venus -14.
Screening CC(C)NC(=O)N(C)C[C@@H]1Oc2cc(Br)ccc2S(=O)(=O)N([C@@H](C)CO)C[C@H]1C returned Vaccinia stage 10&16 and Vaccinia stage Venus 0&7.
Screening C[C@@H]1CN([C@H](C)CO)C(=O)c2cc(NS(=O)(=O)c3ccccc3)ccc2O[C@@H](C)CCCCO[C@@H]1CN(C)C returned Vaccinia stage 7 and Vaccinia stage Venus 9.
`C[C@H]1CCCCO[C@@H](CN(C)S(=O)(=O)c2cn(C)cn2)[C@@H](C)CN([C@@H](C)CO)C(=O)c2cc(NS(=O)(=O)c3ccc(Cl)cc3)ccc2O1` gave Vaccinia stage -10 and Vaccinia stage Venus -3.
O=S(=O)(c1ccc(F)cc1)N1CCCCN2[C@H](C1)[C@H](c1ccc(C#CC3CC3)cc1)[C@@H]2CO was read as Vaccinia stage -29 and Vaccinia stage Venus -34.
`OC[C@@H]1[C@H]2c3ccccc3NC[C@H]2N1CC1CCOCC1` gave Vaccinia stage 3 and Vaccinia stage Venus -3.
For C[C@H](CO)N1C[C@H](C)[C@@H](CN(C)C(=O)NC2CCCCC2)Oc2ccc(NC(=O)Nc3ccccc3)cc2CC1=O the results were Vaccinia stage -5 and Vaccinia stage Venus 1.
For C[C@@H](NC(=O)C[C@H]1CC[C@H](NC(=O)Cc2ccccn2)[C@@H](CO)O1)c1ccccc1 the results were Vaccinia stage 19 and Vaccinia stage Venus 15.
C[C@H]1CN([C@@H](C)CO)C(=O)Cc2cc(NS(C)(=O)=O)ccc2O[C@H]1CN(C)Cc1ccc(Oc2ccccc2)cc1 was read as Vaccinia stage -19 and Vaccinia stage Venus -18.

Brought forward from above: five entries, followed by the next part.
O=S(=O)(c1ccc(F)cc1)N1CCCCN2[C@H](C1)[C@H](c1ccc(C#CC3CC3)cc1)[C@@H]2CO was read as Vaccinia stage -29 and Vaccinia stage Venus -34.
`OC[C@@H]1[C@H]2c3ccccc3NC[C@H]2N1CC1CCOCC1` gave Vaccinia stage 3 and Vaccinia stage Venus -3.
For C[C@H](CO)N1C[C@H](C)[C@@H](CN(C)C(=O)NC2CCCCC2)Oc2ccc(NC(=O)Nc3ccccc3)cc2CC1=O the results were Vaccinia stage -5 and Vaccinia stage Venus 1.
For C[C@@H](NC(=O)C[C@H]1CC[C@H](NC(=O)Cc2ccccn2)[C@@H](CO)O1)c1ccccc1 the results were Vaccinia stage 19 and Vaccinia stage Venus 15.
C[C@H]1CN([C@@H](C)CO)C(=O)Cc2cc(NS(C)(=O)=O)ccc2O[C@H]1CN(C)Cc1ccc(Oc2ccccc2)cc1 was read as Vaccinia stage -19 and Vaccinia stage Venus -18.
`O=C(C[C@H]1C[C@@H]2c3cc(NC(=O)CC4CC4)ccc3O[C@@H]2[C@@H](CO)O1)NCc1ccc(Cl)cc1` gave Vaccinia stage -22 and Vaccinia stage Venus 1.
`C[C@H]1CN([C@@H](C)CO)C(=O)c2cc(-c3ccncc3)cnc2O[C@@H]1CN(C)C(=O)Cc1ccccn1` gave Vaccinia stage 24 and Vaccinia stage Venus 8.
O=C(C[C@@H]1CC[C@@H]2[C@H](COC[C@@H](O)CN2C(=O)Nc2cccc(Cl)c2)O1)N1CCCCC1 was read as Vaccinia stage -23 and Vaccinia stage Venus -21.
`CC=Cc1ccc2n(c1=O)C[C@@H]1[C@@H](CO)[C@H](C(=O)N(C)C)N(C(=O)CC3CC3)[C@H]21` (mixture of isomers) gave Vaccinia stage 2 and Vaccinia stage Venus 5.
For CCCC(=O)Nc1ccc2c(c1)OC[C@@H](C)N(Cc1cc(-c3ccccc3)on1)C[C@@H](C)[C@H](OC)CN(C)C2=O the results were Vaccinia stage -9 and Vaccinia stage Venus -3.
Screening C[C@H](O)C#Cc1cnc2c(c1)C(=O)N([C@@H](C)CO)C[C@@H](C)[C@@H](CN(C)Cc1ccccn1)O2 returned Vaccinia stage 22 and Vaccinia stage Venus 9.
C[C@@H]1CCCCO[C@H](CN(C)C(=O)Cc2ccccc2)[C@H](C)CN([C@@H](C)CO)C(=O)c2cc(NC(=O)c3ccccc3)ccc2O1 was read as Vaccinia stage -26 and Vaccinia stage Venus -27.
For C[C@H]1CN([C@@H](C)CO)C(=O)c2cccc(NC(=O)NC3CCCCC3)c2O[C@H]1CN(C)C(=O)Nc1ccccc1 the results were Vaccinia stage -14 and Vaccinia stage Venus -18.
Screening Cc1noc(C)c1S(=O)(=O)N(C)C[C@@H]1OCCCC[C@@H](C)Oc2ccc(NS(C)(=O)=O)cc2C(=O)N([C@@H](C)CO)C[C@@H]1C returned Vaccinia stage 25 and Vaccinia stage Venus 6.
COc1cccc(S(=O)(=O)Nc2ccc3c(c2)[C@H]2C[C@H](CC(=O)NCC(F)(F)F)O[C@H](CO)[C@H]2O3)c1 was read as Vaccinia stage 7 and Vaccinia stage Venus 15.
